# Calb biofilm kill – mixtures killing C. albicans biofilm; AID 1242; C. albicans biofilm persisters + clotrimazole, fluorescence viability; primary screen in compound mixtures of four per well; actives 0.02% (n = 120,000); inhibition, % at 7.6 µM;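 active means inhibition above 30.3% in the primary screen of four-compound pools, then above 30% when the compound was retested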;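 further: compounds exposed to preformed 24 h biofilms for 48 h; the number belongs to the whole pool; some results filed as inactive read as strong as hits; inactives centre near 12; 0% = biofilm with clotrimazole alone and 100% = kill control; retested singly at about 60 µM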
#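 Test system: C. albicans biofilms. Buffer or medium: RPMI/MOPS medium, pH 7.0. Timing: 48 h compound exposure at 37 °C. Technique: Alamar Blue fluorescence. Evaluation: percent inhibition of biofilm viability.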
# Numbers without * were called inactive; & = joins results of further samples. Some of the compounds tested (hit frequency here may not be typical).
SMILES,Calb biofilm kill
O=C(N/N=C/c1cccs1)c1c[nH]c2ccccc12,21
COc1ccc(Cl)cc1NC(=O)Cn1c(NCCO)nc2ccccc21,12
O=C(N/N=C/c1ccc[nH]1)c1ccncc1,14
CNC(=O)CO/N=C/c1ccc(N(C)C)cc1,6
COc1ccc(C(=O)NNC(=O)CSc2nc3c(c(=O)n(C)c(=O)n3C)n2C)cc1,9
CSC1=NCCN1S(=O)(=O)c1ccc(NC(C)=O)cc1,9
Cc1ccc(S(=O)(=O)N(C)C)cc1NC(=S)N1CCCCC1CO (stereo not given),6
COc1ccc(CCNC(=S)NC2CCN(Cc3ccccc3)CC2)cc1,1
Cc1ccc([N+](=O)[O-])cc1S(=O)(=O)Nc1ccc(N2CCOCC2)cc1,13
COc1ccc(N2CCN(C(=O)CN3CCN(C(c4ccccc4)c4ccccc4)CC3)CC2)cc1,11
CSCCC(NS(=O)(=O)c1ccc(Cl)cc1)C(=O)OCC(=O)c1c(C)[nH]c2ccccc12 (stereo not given),-3
FC(F)(F)c1ccncc1-c1nnnn1-c1ccc(Cl)cc1,24
O=C(Cc1cccs1)N1CCN(c2ccc([N+](=O)[O-])cc2)CC1,-1
Cc1ccccc1-c1nsc(SCC(=O)c2ccc(Cl)cc2)n1,19
Cc1onc(-c2ccccc2)c1C(=O)N1CCOC12CCN(c1cccc(F)n1)CC2,15
CCN(CC(=O)Nc1cccc(F)c1)Cc1nc2ccccc2c(=O)[nH]1,7
Cc1c(NC(=O)c2cc3c(s2)-c2ccccc2OC3)cccc1[N+](=O)[O-],16
COc1ccc(Cc2nc(-c3cccnc3)no2)cc1OC,16
O=C(c1cccc(F)c1)N1CCN(c2ccc([N+](=O)[O-])c(N3CCOCC3)c2)CC1,7
COc1cccc(C2SCC(=O)N2c2ccc(Cl)cc2)c1OC (stereo not given),15
O=C(NC1=NCCS1)c1cccc(S(=O)(=O)N2CCc3ccccc32)c1,4
O=C(Nc1nc2ccccc2[nH]1)c1ccc(Br)o1,27
Cc1ccc(-n2nccc2-c2nn(-c3cccc(C(F)(F)F)c3)c(=O)n(C)c2=O)cc1,14
CC(C)Oc1ccc(S(=O)(=O)N(C(C)C)C(C)C)cn1,11
Cc1cc(C)n(-c2ccc([N+](=O)[O-])cc2-c2nn[nH]n2)n1,20
CCCCOC(=O)N/N=C/C=C/c1ccccc1,11
NS(=O)(=O)c1cccc(NC(=O)CSc2nnc(C3CC3)n2Cc2ccccc2)c1,19
O=S(=O)(c1ccc(F)cc1)N1CCN(c2ccc(-c3ccccc3)nn2)CC1,3
CCOc1ccc(OCC(=O)Nc2ccc(S(N)(=O)=O)cc2)cc1,17
COc1ccc(NC(=S)N(CCCN2CCCC2)Cc2ccco2)cc1,7

# 12 structures from above, ordered by length of the SMILES, rising.
SMILES,Calb biofilm kill
CCCCOC(=O)N/N=C/C=C/c1ccccc1,11
COc1ccc(Cc2nc(-c3cccnc3)no2)cc1OC,16
FC(F)(F)c1ccncc1-c1nnnn1-c1ccc(Cl)cc1,24
Cc1ccccc1-c1nsc(SCC(=O)c2ccc(Cl)cc2)n1,19
COc1ccc(NC(=S)N(CCCN2CCCC2)Cc2ccco2)cc1,7
CCOc1ccc(OCC(=O)Nc2ccc(S(N)(=O)=O)cc2)cc1,17
CCN(CC(=O)Nc1cccc(F)c1)Cc1nc2ccccc2c(=O)[nH]1,7
O=C(NC1=NCCS1)c1cccc(S(=O)(=O)N2CCc3ccccc32)c1,4
Cc1cc(C)n(-c2ccc([N+](=O)[O-])cc2-c2nn[nH]n2)n1,20
O=S(=O)(c1ccc(F)cc1)N1CCN(c2ccc(-c3ccccc3)nn2)CC1,3
Cc1onc(-c2ccccc2)c1C(=O)N1CCOC12CCN(c1cccc(F)n1)CC2,15
Cc1ccc(-n2nccc2-c2nn(-c3cccc(C(F)(F)F)c3)c(=O)n(C)c2=O)cc1,14

# Other structures follow:
SMILES,Calb biofilm kill
O=C(NCc1n[nH]c(=S)n1-c1ccc(Cl)c(Cl)c1)c1ccc(S(=O)(=O)N2CCOCC2)cc1,-3
O=S(=O)(c1ccccc1)N1CCC2(CC1)OCCO2,13
N=C1C(c2nc3ccccc3[nH]2)=C(O)CN1NC(=O)c1c[nH]c2ccccc12,8
Cc1ccccc1NC(=O)C(NC1CCCCC1)C(C)C (stereo not given),29
CSCC[C@H](NC(=O)Nc1ccc(OC(F)(F)F)cc1)C(=O)O,16
COc1cccc(-n2c(=O)c3c(C)c(C(=O)N(C)C)sc3n(CC(=O)NCCc3ccc(OC)c(OC)c3)c2=O)c1,7
Cc1cc(NC(=O)c2cccc([N+](=O)[O-])c2)n(-c2ccccc2)n1,14
Cc1ccccc1Nc1ncc(C#N)c(N)n1,19
Cc1ccccc1OC1=NS(=O)(=O)c2ccccc21,25
C[N+](C)(C)C(Cc1c[nH]c2ccccc12)C(=O)[O-] (stereo not given),18
CCN(CC)C(=O)C(=O)c1cccn1-c1ccc(C#N)cc1,13
COc1ccc(CCN=c2c([N+](=O)[O-])nn(-c3cccc(C)c3)n2O)cc1OC,7
COc1ccc(NC(=O)COC(=O)Cc2ccc(Br)cc2)cc1,15
CCOC(=O)c1nn(-c2cccc(C)c2)c2nnc(Cc3ccc(C)cc3)c(=O)n12,12
CCc1cc(-c2n[nH]c(C)c2-c2nc(C)cs2)c(O)cc1OC,4
COC(=O)C(Cc1c[nH]c2ccccc12)NC(=O)c1cc(-c2ccc(OC)c(OC)c2)oc1C (stereo not given),14
Cc1ccc(C(=O)CN2C(=O)C(C)Oc3ccccc32)cc1 (stereo not given),18
C#CCOCCOCCOCCNc1nc(N2CCN(C(=O)[C@H](CCCCN)n3cc(CCCC)nn3)CC2)nc(N2CCN(C(=O)[C@H](Cc3ccc(O)cc3)n3cc(CCO)nn3)CC2)n1,7
CCOC(=O)C1=C(C)NC2=C(C(=O)c3ccccc32)C1c1ccc(O)cc1 (stereo not given),15
Cc1sc(N)nc1C12CC3CC(CC(C3)C1)C2,-2
CSc1cccc(NC(=S)NN(C)C)c1,13
Cc1ccc(NC(=O)CNCc2ccccc2)c(Br)c1,13
O=C(Cc1ccccc1)NCC(=O)OCC(=O)c1ccccc1Cl,-4
CC(C)N(Cc1ccccc1)CC(O)COc1ccc(S(=O)(=O)N2CCOCC2)cc1Cl (stereo not given),5
CC(C)NC(=O)COc1ccccc1C#N,7
Fc1c(F)c(F)c(N=Cc2ccc3ncccc3c2)c(F)c1F,7
CC(=O)c1ccc(Nc2c3c(c(C#N)c4nc5ccccc5n24)CCC3)cc1,11
CN1CCN(C2=CC3=CC(=C(C#N)C#N)CCC3CC2)CC1 (stereo not given),4
Cc1nc(N)sc1C(=O)N/N=C/c1cccnc1,10
CCCc1c(OCCCCc2nn[nH]n2)ccc(C(C)=O)c1O,9
COC(=O)C1=C(C)N(c2ccc(Cl)cc2)/C(=C/c2ccc(O)cc2)C1=O,4
CCOP(=O)(OCC)C(Nc1cccc([N+](=O)[O-])c1)c1ccc(N(C)C)cc1 (stereo not given),-4
CN(C)C(=S)SCC(=O)NCc1ccc(F)cc1,-2
O=Cc1ccc(-c2ccc(Cl)cc2Cl)[nH]1,-14
FC(F)(F)c1cccc(NC(=S)N2CCN(c3ccccc3)CC2)c1,8
CCOc1ccc(CCN2C(=O)c3cccnc3C2=O)cc1OCC,16
Cn1c(=O)c2c(nc(N/N=C/c3cccs3)n2Cc2ccc(Br)cc2)n(C)c1=O,20
CC(C)NC(=O)CSc1nc2[nH]ncc2c(=O)[nH]1,9
CCCCCNC(=O)c1ccc2c(=O)n(CC3CCCO3)c(=S)[nH]c2c1 (stereo not given),12
O=C(CCc1ccccc1)N1N=C(c2ccncc2)CC1(O)C(F)(F)F (stereo not given),15

# Two entries from above in a different format.
smiles	Calb biofilm kill
CCCCCNC(=O)c1ccc2c(=O)n(CC3CCCO3)c(=S)[nH]c2c1 (stereo not given)	12
O=C(CCc1ccccc1)N1N=C(c2ccncc2)CC1(O)C(F)(F)F (stereo not given)	15

# (further entries)
SMILES,Calb biofilm kill
C#CCOCCOCCOCCNc1nc(N2CCN(C(=O)[C@H](CCC(=O)O)n3cc(C(N)CC(C)C)nn3)CC2)nc(N2CCN(C(=O)[C@H](Cc3cc4ccccc4[nH]3)n3cc(C(N)CC(C)C)nn3)CC2)n1 (stereo not given in full),20
Cc1cccc(C2NC(c3cccc(C)c3)C([N+](=O)[O-])C(C)(C)C2[N+](=O)[O-])c1 (stereo not given),16
CCOc1ccccc1Nc1nnc(SCC(=O)Nc2nc(-c3ccc(OC)cc3)cs2)s1,20
CCC(=O)Nc1ccc(C(=O)N2CCN(C(=O)c3ccco3)CC2)cc1,6
O=S(=O)(CC(CN1CCOCC1)N1CCOCC1)c1ccccc1 (stereo not given),13
O=C(NC1CCCc2ccccc21)c1cccc(Br)c1 (stereo not given),12
Cc1ccc(S(=O)(=O)N2N=C3CCCCC3C2(O)C(F)(F)F)cc1 (stereo not given),21
COc1ccc(C2=NOC(COC(=O)c3ccc4ccccc4n3)C2)cc1 (stereo not given),13
C#CCSc1nnc(-c2ccccc2)c(=O)[nH]1,6
CSc1ccccc1NC(=O)COC(=O)Cc1cccs1,-5
O=S(=O)(Nc1ccc2ccccc2n1)c1ccc2c(c1)CCO2,11
Cc1ccc(S(=O)(=O)NCCC(=O)NCc2ccco2)cc1,14
S=C(NCc1cccs1)NCC1CCCO1 (stereo not given),7
CN(C)c1ccc(N=Nc2ccccc2C(=O)OCC(=O)Nc2ccccc2C(F)(F)F)cc1,11
C/C(=N\N1CCN(Cc2ccc(C)cc2)CC1)c1ccco1,10
COc1ccccc1CN1C[C@@H]2C[C@@H](c3ccc(C)cc3)N3CCC[C@@]23C1=O,25
O=C(N/N=C/c1cccc(O)c1)c1ccccc1O,26
COc1ccc(NC(=S)NNc2ccc([N+](=O)[O-])cc2S(=O)(=O)Nc2ccc(C)cc2C)cc1,12
COC(=O)[C@H](CC(C)C)NC(=O)Nc1ccc(F)cc1,21
COC(CN(C(=O)CCl)C(C(=O)NC1CCCCC1)c1ccccc1C)OC (stereo not given),17
CC1(OC(=O)C2CCCC2)C(=O)C=C2C=C(c3ccsc3)N(Cc3ccco3)C=C2C1=O (stereo not given),18
N/N=C1\CCCc2nonc21,6
Cc1cccc(NC(=O)c2cccc(C(F)(F)F)c2)c1,-2
NC(=O)/C(=C\c1ccccc1)NC(=O)c1ccc(NC(=O)c2ccccc2)cc1,21
Cc1cc(C)[n+]2n1C(=O)C(c1ccccc1)=C2[O-],13&9
COc1cc(C(=O)Nc2ccc(C)cn2)c([N+](=O)[O-])cc1OC,17
CCOC(=O)c1cn[nH]c1C(F)(F)F,21
Cc1ccc(C)n1-c1ccc(-c2ccn[nH]2)cc1,16
CN(Cc1cccnc1)C(=O)CNC(=O)c1ccc(Cl)cc1Cl,4
O=C(CNCc1cccs1)Nc1ccc(S(=O)(=O)N2CCCCC2)cc1,13
CC(C)(CO)CNC(=O)CC1C(=O)NCCN1CC(c1ccccc1)c1ccccc1 (stereo not given),12
Cc1ccc(C(=O)Oc2cc(C)[nH]c(=O)c2[N+](=O)[O-])cc1,26
CCOC(=O)c1ccc(NC(=O)c2ccccc2[N+](=O)[O-])cc1,5
O=c1c(Cc2ccc(F)cc2)c(O)ccn1Cc1ccc(F)cc1,-16
COc1ccc(-c2csc(NC(=O)CSc3ncn[nH]3)n2)cc1OC,7
CCOc1ccc(C(=O)/C=C/Nc2ccc(S(=O)(=O)N=C(N)N)cc2)cc1,9
O=c1/c(=C/c2ccccc2)sc2nnc(-c3cccs3)n12,4
CC(CCc1ccccc1)NC(=O)COc1cc(F)ccc1[N+](=O)[O-] (stereo not given),7
O=C(Nc1ccccc1)N1CCN(C(=O)Nc2ccccc2)CC1,10
CN(C)c1ccc(C=NCCC2(c3ccccc3)CCOC(C)(C)C2)cc1 (stereo not given),6
CC1S/C(=N\N=C\c2cccc([N+](=O)[O-])c2)N(C(C)(C)C)C1=O (stereo not given),13
COc1ccc(C(=NNc2ccccc2C(=O)O)c2ccc(OC)cc2)cc1,14
CCCc1cc2c(cc1NC(=O)c1ccc(C(C)(C)C)cc1)OCO2,16
COc1ccc(C(=O)NC2CCN(C(=S)Nc3cc(C)cc(C)c3)CC2)cc1,14
CS/C(N)=N/N=C/c1cc(Br)cc(Br)c1O,28
C=CCOc1ccc(C2C(C(=O)c3ccco3)=C(O)C(=O)N2c2nnc(C)s2)cc1 (stereo not given),3
COc1ccccc1OCCC(=O)OCC(=O)c1c(N)n(C)c(=O)n(C)c1=O,5
CCN(CC(=O)Nc1ccc(N2CCOCC2)cc1)CC(=O)NC(C)(C)C,9
CC[N+](C)(CC)CCC/C(=N/O)C(O)(c1ccccc1)c1ccccc1,26
COc1cccc(NC(=O)N2CCCC(C(=O)NCc3ccc(F)cc3)C2)c1 (stereo not given),20

# (list continues)
SMILES,Calb biofilm kill
O=C(c1ccco1)N1CCN(C(=O)N2CCCC2)CC1,7
COc1ccc(N(CC(=O)Nc2ccc3c(c2)OCO3)S(=O)(=O)c2ccc(F)cc2)cc1,7
O=C(C1CCCN(S(=O)(=O)c2ccccc2)C1)N1CCCCCC1 (stereo not given),11
C/C(Cc1ccccc1)=N\NC(=O)CNC(=O)c1ccccc1,20
CC(=O)Nc1ccc(S(=O)(=O)NNC(=O)COc2ccc(C)cc2)cc1,11
O=C(O)c1nnn(-c2cc(C(F)(F)F)cc(C(F)(F)F)c2)c1-c1ccccc1,19
O=C(Nc1ccc(Cl)cc1)OCc1cn(-c2ccccc2)nn1,10
COc1ccccc1N(CC(O)COc1ccccc1)S(=O)(=O)c1ccccc1 (stereo not given),10
CCOC(=O)C1(Cc2cccc(F)c2)CCN(Cc2cn(CC)nc2C)CC1,14
Cc1cccc(NC(=O)C23CCC(C)(C(=O)O2)C3(C)C)c1 (stereo not given),-2
COC(=O)CC1=C(C(=O)OC)[C@@H](c2ccccc2[N+](=O)[O-])C(C#N)=C(N)O1,11

# Quoted at random: two compounds from above, in no set order.
SMILES,Calb biofilm kill
CC(=O)Nc1ccc(S(=O)(=O)NNC(=O)COc2ccc(C)cc2)cc1,11
CCOC(=O)C1(Cc2cccc(F)c2)CCN(Cc2cn(CC)nc2C)CC1,14

# High-throughput results as filed in PubChem BioAssay.
